# Screens deposited in PubChem BioAssay by National Center for Advancing Translational Sciences (NCATS).
# A488 autofl: qHTS Assay for Spectroscopic Profiling in A488 Spectral Region; 59,000 tested, 0.1% active; max dye equivalency, M; compound autofluorescence, A488 spectral region, dye equivalency; hits give high values; active = above 10 nM dye equivalent; inconclusive = 1 to 10 nM; inactive = 1 nM or less; about half of its hits are not listed in these tables;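 further: highest value over a series up to 38 µM; compound alone in buffer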
#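 Compounds pin-transferred into 100 mM Tris buffer, pH 8.0, incubated 15 min at room temperature, then imaged with 480 nm excitation/540 nm emission filters. Fluorescence converted to Alexa 488 dye-equivalent concentration via an on-plate six-point A488 standard curve.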
# TSHR ag: qHTS Assay for Agonists of the Thyroid Stimulating Hormone Receptor; Potency, µM (highest dose often 57.1 µM), for the others: at the highest dose activation, usual class: activators; 73,000 tested, 0.48% active; HEK293-CNG-TSHR cells (CNG channel as cAMP sensor), membrane potential dye, cAMP; active = well fitted activation curve of enough size with the parental cells flat; inconclusive = any curve in the parental cells; inactive = parental cells flat and receptor cells flat or falling; further: potency means the concentration at half of the fitted maximal effect; % of control where 0% means no effect; weak receptor curves with flat parental cells got no call and are not listed
# Target sequence (P16473 whole entry, looked up): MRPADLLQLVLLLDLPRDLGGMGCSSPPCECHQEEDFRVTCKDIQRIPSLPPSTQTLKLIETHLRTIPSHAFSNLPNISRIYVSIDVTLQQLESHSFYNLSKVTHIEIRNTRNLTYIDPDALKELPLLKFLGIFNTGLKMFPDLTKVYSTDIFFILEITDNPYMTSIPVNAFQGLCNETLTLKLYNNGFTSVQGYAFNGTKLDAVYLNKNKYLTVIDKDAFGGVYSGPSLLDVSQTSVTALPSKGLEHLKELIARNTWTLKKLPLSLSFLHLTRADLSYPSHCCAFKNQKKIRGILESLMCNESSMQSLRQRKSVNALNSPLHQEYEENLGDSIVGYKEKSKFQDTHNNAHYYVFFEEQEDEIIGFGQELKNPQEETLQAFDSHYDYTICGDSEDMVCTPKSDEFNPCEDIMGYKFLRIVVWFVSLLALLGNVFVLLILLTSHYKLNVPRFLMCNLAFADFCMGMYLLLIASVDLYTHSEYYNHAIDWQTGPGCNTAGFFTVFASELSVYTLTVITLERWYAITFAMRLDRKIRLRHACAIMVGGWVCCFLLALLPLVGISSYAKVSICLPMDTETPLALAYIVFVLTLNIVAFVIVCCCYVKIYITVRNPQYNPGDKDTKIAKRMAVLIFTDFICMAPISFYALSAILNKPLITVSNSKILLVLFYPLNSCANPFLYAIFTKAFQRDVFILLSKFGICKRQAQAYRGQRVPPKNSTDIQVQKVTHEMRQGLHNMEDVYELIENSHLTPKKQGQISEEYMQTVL
#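 cAMP rise detected as CNG-channel membrane depolarization by fluorescent dye (emission 590 nm), 30 min after compound, following 60 min dye loading containing 100 uM RO 20-1724 at room temperature. Cells: TSHR/CNG HEK 293, with parental CNG HEK 293 as control.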
# A647 autofl: qHTS Assay for Spectroscopic Profiling in A647 Spectral Region. Compound fluorescence, A647 channel (570/671 nm), Tris buffer. max dye-equivalent concentration, M. 59,000 tested, under 10 active. AID 592, 2007; active means above 1 µM dye equivalent; inconclusive means 0.1 to 1 µM; inactive means 0.1 µM or less;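 further: values scaled relative to a standard on each plate; highest value over a series up to 38 µM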
#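 Compound fluorescence was measured in 100 mM Tris buffer, pH 8.0, after 15 min at room temperature, using 570 nm excitation and 671 nm emission filters. Signal was normalized to a per-plate Alexa 647 standard curve and expressed as dye-equivalent concentration at each compound concentration.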
# AID923: qHTS Assay for Allosteric/Competitive Inhibitors of Caspase-1: Spectroscopic Profiling in AFC Spectral Region; Potency, µM (doses to about 57.5 µM), without a hit: at the top dose fluorescence increase, hits mostly activators; 75,000 tested, 1.1% active; AID 923, 2007; compound fluorescence, AFC spectral region (405/520 nm); almost no hit is shown here; active means well fitted activation curve with a large enough effect; inconclusive means small, poorly fitted or top-dose-only effect;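 further: potency means the concentration at half of the fitted maximal effect; 0% is about no effect; scaled to a free AFC standard on each plate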
#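 Titrations up to 57 uM read every 20 sec for 3 min (405/520 nm) with 50 nM caspase 1 and 5 uM Ac-WEHD-AFC, pH 7.5 HEPES buffer. Fluorescence-vs-time intercept gave baseline, scaled against on-plate AFC standard.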
# Resorufin fluor: qHTS Assay for Spectroscopic Profiling in Resorufin Spectral Region; Compound fluorescence, resorufin region 547/598 nm, buffer; hits give high values; max dye-equivalent concentration, M; 59,000 tested, 0.04% active; AID 588, 2007; active = above 10 nM dye equivalent; inconclusive = 1 to 10 nM; inactive = 1 nM or less; a few of its hits are not listed in these tables; further: highest value over a series up to 38 µM
#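 Intrinsic fluorescence profiled in the resorufin window (ex 547 nm, em 598 nm) after 15 min at room temperature in pH 8.0 Tris buffer (100 mM); responses normalized against a six-point resorufin standard series as dye-equivalent concentration.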
# * hit, by the source's call; i = inactive; u = inconclusive; x = no result given; [ ] = another dose, or the depositor's remark. Some of the compounds tested; rates above refer to the full screens.
SMILES,A488 autofl,TSHR ag,A647 autofl,AID923,Resorufin fluor
CC(=O)Oc1cccc2c1C(=O)c1c(OC(C)=O)cc(C(=O)O)cc1C2=O,i,x,7.7e-09,10.0%,i
CCOC(=O)Cc1csc(NC(=O)CSc2nc3cccnc3n2CC)n1,i,20%[11.4 µM],1e-09,-0.2%,i
COC(=O)c1ccc(OCC(=O)Nc2nn(-c3ccccc3)nc2C(N)=O)cc1,i,3%[11.4 µM],3.6e-08,0.9%,i
COc1ccc(C(CC(=O)O)NS(=O)(=O)c2ccc(C)cc2)cc1OC (centres undefined),i,-7%,1.8e-08,-1.4%,i
Cc1ccccc1C(=O)N(C)Cc1ccccc1,i,11%,1e-09,0.9%,i
S=C(c1ccc(N2CCOCC2)cc1)N1CCOCC1,i,-2%,3.9e-09,-0.4%,i
CC(=O)Nc1cccc(NS(=O)(=O)Cc2ccc(Cl)cc2)c1,i,-3%,9.4e-09,0.7%,i
O=S(=O)(Nc1ccccn1)c1ccc(Oc2ccccc2)cc1,i,14%,1e-09,-0.7%,i
O=C(O)CCc1nc(-c2ccccc2-n2cccc2)no1,i,6%[11.4 µM],1e-09,-3.0%[11.5 µM],i
c1cnc(Oc2ccc(-c3nnco3)cc2)cn1,i,4%[11.4 µM],8.5e-09,0.2%,i
CCOc1cc(S(=O)(=O)N2CCN(Cc3ccccc3)CC2)ccc1Br,i,x,1.9e-08,-1.2%,i
Cc1ccc(N2CC(C(N)=O)CC2=O)cc1 (centres undefined),i,-2%,1.6e-08,-1.5%,i
CN1CCN(S(=O)(=O)c2cccc(S(=O)(=O)c3ccc(Cl)c(Cl)c3)c2)CC1,x,3%[11.4 µM],x,0.2%,x
COc1ccc2[nH]c(=O)c(CN(CCN3CCCC3)C(=O)Nc3ccccc3Cl)cc2c1,i,12%,2.2e-09,0.6%,i
CCCCCCOC(=O)CCn1[nH]c(=O)c2ccccc2c1=O,i,x,2.3e-09,x,i
Cc1nn(C)c(C)c1S(=O)(=O)N1CCC(C(=O)Nc2ccc3c(c2)OCCO3)CC1,x,-4%,x,0.4%,x
NC(=O)C1CCN(C(c2ccccc2Cl)c2nnnn2Cc2ccc3c(c2)OCO3)CC1 (centres undefined),i,18%,4.5e-09,-0.7%,i
CCOC(=O)c1c(C)c(C(=O)NCc2cccs2)c(C)n1C,i,25%[11.4 µM],6.2e-09,-1.5%,i
COc1cccc(=O)c2c(C)n(C)c(C)c12,i,0%,1e-09,5.8%,i
Cc1c(C)c(C)c(CC2(C)CSC2)c(CC2(C)CSC2)c1C,i,1%[11.4 µM],1e-09,1.4%[11.5 µM],i
CCN(CC(=O)O)S(=O)(=O)c1cc(Cl)ccc1Cl,i,2%,1e-09,1.6%,i
COc1ccc(NC2CC(=O)NC2=O)cc1 (centres undefined),i,x,1e-09,-0.7%,i
C=CCn1c(SCc2ccc(C#N)cc2)nnc1-c1cccc(OC)c1,i,u,8.3e-09,-0.2%,i
CCCCC(NC(=O)c1ccc(Cl)cc1)C(=O)O (centres undefined),i,14%,1e-09,-1.9%,i
Cc1ccc(C2c3c(oc4ccccc4c3=O)C(=O)N2c2nnc(C(C)C)s2)o1 (centres undefined),x,7%,x,-1.3%,x

# One compound at a time (already shown). Values in the order: A488 autofl	TSHR ag	A647 autofl	AID923	Resorufin fluor
# Shown for CCCCC(NC(=O)c1ccc(Cl)cc1)C(=O)O (centres undefined) → i	14%	1e-09	-1.9%	i
# Shown for COc1cccc(=O)c2c(C)n(C)c(C)c12 → i	0%	1e-09	5.8%	i

# Back to the main list, starting six compounds before the break.
SMILES,A488 autofl,TSHR ag,A647 autofl,AID923,Resorufin fluor
Cc1c(C)c(C)c(CC2(C)CSC2)c(CC2(C)CSC2)c1C,i,1%[11.4 µM],1e-09,1.4%[11.5 µM],i
CCN(CC(=O)O)S(=O)(=O)c1cc(Cl)ccc1Cl,i,2%,1e-09,1.6%,i
COc1ccc(NC2CC(=O)NC2=O)cc1 (centres undefined),i,x,1e-09,-0.7%,i
C=CCn1c(SCc2ccc(C#N)cc2)nnc1-c1cccc(OC)c1,i,u,8.3e-09,-0.2%,i
CCCCC(NC(=O)c1ccc(Cl)cc1)C(=O)O (centres undefined),i,14%,1e-09,-1.9%,i
Cc1ccc(C2c3c(oc4ccccc4c3=O)C(=O)N2c2nnc(C(C)C)s2)o1 (centres undefined),x,7%,x,-1.3%,x
Cc1cc(C(F)(F)F)nn1CC(=O)N1CCCC1,i,0%,1.6e-08,-1.2%,i
CCOC(=O)N1CCC(Nc2nc3ccccc3nc2NS(=O)(=O)c2ccc(Cl)cc2)CC1,i,-11%,1e-09,8.9%,i
O=C(Nn1c(Cc2cccs2)nc2ccccc2c1=O)c1cccs1,i,x,1e-09,1.0%,i
COc1ccc(N2CC(C)Cn3c2nc2c3c(=O)n(Cc3ccccc3F)c(=O)n2C)c(OC)c1 (centres undefined),i,5%,2.6e-08,-0.4%,i
CC(C)(C)c1onc(OCP(=O)(O)O)c1C[C@@H](N)C(=O)O,i,4%,1.1e-08,1.8%,i
Cc1noc(NS(=O)(=O)c2ccc(NC(=O)CS(=O)(=O)c3ccccc3)cc2)c1C,i,1%,1.9e-09,5.8%,i
COc1cc(C(=O)Nc2nnc(-c3sccc3C)s2)cc(OC)c1OC,i,u,3.5e-08,12%,i
CCCCN(CC)CCNC(=O)CN(C)S(=O)(=O)c1ccc2c(c1)c(=O)n(C)c(=O)n2C,i,-21%,3.2e-09,-1.1%,i
CCOCCCNC(=O)N[C@@H](C)C(=O)OC,i,u,1e-09,-0.3%,i
COC(=O)c1ccc(NC(=O)c2ccccc2N(C)S(C)(=O)=O)cc1,i,-15%,6.3e-09,1.3%,i
COc1ccccc1Cn1c(=O)c2ccccc2n2c(SCC(=O)N3CCCCC3)nnc12,i,8%[11.4 µM],3.6e-09,-0.3%,i
CCOC(=O)C1CCN(C(=O)c2c(-c3c(Cl)cccc3Cl)noc2C)CC1,i,2%,1e-09,0.3%,i
O=C(c1cc(C(F)(F)F)cc(C(F)(F)F)c1)N1CCC2(CCCN(c3ccccc3)C2)CC1,i,-3%,1.7e-08,-1.7%,i
CC1CN(c2nc(-c3ccccc3)nc3ccccc23)CC(C)O1 (centres undefined),x,u,x,-2.0%,x
COc1ccc(S(=O)(=O)N2CCC(C)CC2)cc1Br,i,33%,5.5e-08,1.0%,i
Cc1ccnc(SCCn2c(N3CCCCC3)nc3c2c(=O)n(C)c(=O)n3C)n1,i,-4%,7.5e-09,0.3%,i
Clc1ccc(NC2=NCCCCC2)cc1,i,10%,4.1e-08,0.6%,i
Cn1c(=O)c(=O)n(C)c2cc(S(=O)(=O)N3CCc4ccccc43)ccc21,i,10%,1e-09,1.0%,i
CC1CCN(C(=O)CSc2nnc(Cc3cccn3C)n2CCc2ccccc2)CC1,x,11%,x,3.7%,x
O=C(Cc1c[nH]c2ccccc12)Nc1nccs1,i,-17%,1e-08,-0.8%,i
O=C(NC1CCCCC1)C(c1cccs1)N(CC1CCCO1)C(=O)c1csnn1 (centres undefined),i,u,1.1e-08,0.3%,i
COc1ccc2nc(C)[nH]c(=O)c2c1,i,-2%,1e-09,0.7%,i
CC12CCC(CC1=O)C2(C)C (centres undefined),x,-8%,x,-1.3%,x
COc1ccc(OC)c(NC(=O)CNC(=O)Cn2ccc3ccccc3c2=O)c1,x,-4%,x,-0.3%,x
c1ccc2c(c1)NC(c1ccncc1)n1c-2nc2ccccc21 (centres undefined),i,x,3.6e-09,x,i
# The list continues:
SMILES,A488 autofl,TSHR ag,A647 autofl,AID923,Resorufin fluor
CC(=O)c1cc2c(cc1NC(=O)CCn1cccc1)OCO2,x,7%,x,0.0%,x
COc1ccccc1OCC(=O)Nc1ccc(S(=O)(=O)Nc2nc(C)cc(C)n2)cc1,x,u,x,1.7%,x
CCCS(=O)(=O)N1CCN(C(=O)c2ccccc2F)CC1,i,2%,1e-08,-1.8%,i
COc1ccc(NS(=O)(=O)c2ccc3oc4ccccc4c3c2)cn1,i,16%,1.2e-08,-0.9%,i
O=C(Nc1nnc(C2CC2)s1)c1cc(-c2ccccc2)nn1-c1ccccc1,i,2%,4e-08,4.9%,i
Cc1ccc(S(=O)(=O)CC(=O)N(C)C)cc1,i,2%,1e-09,0.5%,i
Cc1nn(C)cc1CNC(=O)c1ccccc1Br,i,-1%,1e-09,-3.3%,i
Cc1ccc(Cn2cccc(NC(=O)c3ccco3)c2=O)cc1,i,u,9e-09,-2.3%,i
CCN(CC)CCNC(=O)c1c(O)c2cccc3c2n(c1=O)CCC3,i,u,3.6e-08,-0.3%,i
COc1ccc(-c2cc(C(=O)N3CCCc4ccccc43)no2)cc1OC,i,u,1e-09,0.0%,i
Cc1cc(-c2cc(-c3ccc(Cl)cc3)nc(N)c2C#N)co1,i,x,1e-08,x,i
Cn1cccc1C(=O)N1CCC2(CC1)CN(Cc1cc(C(F)(F)F)cc(C(F)(F)F)c1)C2,i,u,1e-09,2.7%,i
O=C(Nc1nc2c(s1)CCCC2)c1ccc(Br)s1,x,-2%,x,3.9%,x
COc1ccc(-n2cnnc2SCc2csc(-c3ccccc3)n2)cc1,i,16%,6.5e-09,-0.6%,i
Cl/C(=C\n1cncn1)c1ccc(Cl)cc1Cl,x,u,x,0.5%,x
CC(C)CCNC(=O)C(C)N(Cc1ccc(F)cc1)C(=O)c1ccc(CN2CCCCC2)o1 (centres undefined),i,u,1e-09,2.0%,i
COc1ccc(CC(=O)OC(C)CN2CCCC2)cc1 (centres undefined),i,0%,1e-09,-0.9%,i
c1cn(-c2ccnc(-c3ccc4c(c3)OCO4)n2)cn1,i,5%,1e-09,1.1%,i
O=C(Nc1ccccc1C(F)(F)F)c1cc(-c2cccc(O)c2)on1,i,-5%,1.1e-09,2.9%,i
COc1ccc(N2CCN(C(=O)c3ccc(CS(=O)(=O)c4ccc(OC)cc4)o3)CC2)cc1,x,u,x,3.5%,x
CCC/C=C(\CCC)C(NC(=O)c1ccco1)c1ccc(C(=O)OC)cc1 (centres undefined),x,u,x,-1.4%,x
COc1ccc2c(CN(C)c3ccccc3)cc(=O)oc2c1,i,6%[11.4 µM],1.4e-08,0.3%,i
O=C(CC1CCCCC1)NCC1CCCO1 (centres undefined),i,0%,3.1e-08,0.1%,i
Cc1cc(C)n2nc(S(=O)(=O)N(C)Cc3ccccc3)nc2n1,i,14%[11.4 µM],2.8e-08,-1.1%,i
O=C(CSc1nnc(CN2CCCCCC2=O)n1-c1ccccn1)NCC(F)(F)F,i,1%,2.7e-08,0.0%,i
# (further entries)
SMILES,A488 autofl,TSHR ag,A647 autofl,AID923,Resorufin fluor
Cc1cc(-c2nnc3sc(C4CCCCC4)nn23)n[nH]1,i,15%,1e-09,0.1%,i
O=S1(=O)CCC(N=Cc2cc(Br)ccc2O)C1 (centres undefined),i,-10%,3.3e-09,4.9%,i
COCCSc1ccccc1C(=O)Nc1cc(C)on1,i,18%,1e-09,0.3%,i
CCOC(=O)c1c(C)[nH]c(NC(=O)Nc2c(C)n(C)n(-c3ccccc3)c2=O)c1C,i,-7%,1e-09,-0.5%,i
Cc1ccc(N2CC(C(=O)OCC(=O)C(C)(C)C)CC2=O)cc1 (centres undefined),i,-1%,4.2e-09,-1.0%,i
Cc1sc2ncnc(N[C@@H](CCC(=O)O)C(=O)O)c2c1C,i,2%,1.8e-08,0.5%,i
Cc1nnc(NC(=O)CSc2nnc(Cc3cccn3C)n2-c2ccccc2)s1,x,3%,x,0.3%,x
Cc1ccc(NC(=O)CNc2cccc(C)c2C)c(C)c1,i,-7%,3.9e-08,-1.4%,i
COC(=O)c1ccc2c(=O)n(CCN3CCOCC3)c(SCC(=O)NC3CCCCC3)nc2c1,i,-8%,1.3e-09,0.1%,i
